HIV Env fusion – inhibitors of HIV-1 Env-driven cell-cell fusion, primary screen, HeLa-JRFL effector, CEM21 target cells, luciferase. inhibition, % at 12.3 µM. actives 1.1% (n = 360,000);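 active = mean replicate inhibition score of at least 50 and every replicate individually at or above 50; inconclusive = only one of the two criteria met; inactive = mean below 50 and not all replicates reaching 50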;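 note: 0% = plate neutral controls and 100% = maraviroc near 300 nM; one replicate is shown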
eIF4H FP inh – human eIF4H binding inhibitors, primary screen, translation initiation inhibitor project, biochemical, uHTS, fluorescence polarization; Eukaryotic translation initiation factor 4H (Homo sapiens), Q15056; inhibition, % at 35 µM; AID 2012, 2009; eIF4H fluorescence polarization binding assay; actives 0.94% (n = 290,000);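 active = 50% or more with normal probe brightness, or confirmed in later tests; inconclusive = above 50% with abnormal brightness, or retests that disagree; inactive = below 50% or failed in later tests; about a fifth of its hits are not listed in these tables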;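 note: calls also rest on retests at 20 µM and on dose response follow-up; 0% = protein and probe with vehicle and 100% = probe without protein; strong numbers were not always called active; many hits fall short of the cut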
PABP polyA inh – PABP poly(A) RNA binding inhibitors, primary screen, biochemical, fluorescence polarization, uHTS. Polyadenylate-binding protein 1 (Homo sapiens), P11940. inhibition, % at 35 µM. actives 1% (n = 290,000);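 active = 50% or more with normal probe brightness, or confirmed in later tests; inconclusive = above 50% with abnormal brightness, or retests that disagree; inactive = below 50% or failed in later tests; about a fifth of its hits are not listed in these tables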;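 note: calls also rest on retests at 20 µM and on dose response follow-up; controls were probe without protein and protein plus probe with vehicle; some compounds called inactive have numbers as strong as hits; many hits fall short of the cut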
MT1-MMP act inh – blockers of MT1-MMP proenzyme processing, primary screen, HT1080 RFP-PRO-GFP cells, GFP/RFP fluorescence; GFP/RFP ratio fluorescence, overnight; percent of plate control window, DMSO zero; GFP/RFP ratio change, % at 20 µM; actives 0.061% (n = 360,000);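 active = GFP/RFP ratio change of at least 30% with cell ATP level not reduced by more than half and red fluorescence within 50% of control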; note: strong numbers were not always called active
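Assay system: HT1080 RFP-PRO-GFP cells | Dosing: 20 µM single dose, 1% DMSO | Incubation: Cells overnight before dosing, compound overnight, 37 °C, 5% CO2 | Evaluation: GFP/RFP fluorescence ratio | Control set: DMSO-only wells and HT1080 RFP-L50D-GFP cell wells as references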
CSC inhib – cancer stem cell viability inhibitors, primary screen, luminescence | cancer stem cell-like cells viability | inhibition, % at 7.5 µM | actives 1.1% (n = 300,000) | AID 2717, 2010;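 active = mean at 75% or more and at least half the replicates too; inconclusive = mean and replicates disagree; tested in HMLE shEcad cells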;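 note: 0% = median of negative and 100% = median of positive control wells; the first replicate is given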
Rce1 inhib – yeast Rce1p protease inhibitors, primary screen, biochemical, fluorescence, cell-free homogeneous; CAAX prenyl protease 2 (Saccharomyces cerevisiae (strain ATCC 204508 / S288c)), Q03530; yeast membranes, quenched prenylated peptide cleavage fluorescence; calls only; actives 0.27% (n = 290,000); AID 2563, 2010;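 active = fall in fluorescence gain of 50% or more versus controls, with final raw signal at or below 3038400; inconclusive = same 50% fall but final raw signal above 3038400; inactive = fall in fluorescence gain under 50%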;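 note: plate controls were neutral control wells for no effect and wells lacking membranes for full effect; tested at 10 µM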
Target sequence (Q03530 whole entry, looked up): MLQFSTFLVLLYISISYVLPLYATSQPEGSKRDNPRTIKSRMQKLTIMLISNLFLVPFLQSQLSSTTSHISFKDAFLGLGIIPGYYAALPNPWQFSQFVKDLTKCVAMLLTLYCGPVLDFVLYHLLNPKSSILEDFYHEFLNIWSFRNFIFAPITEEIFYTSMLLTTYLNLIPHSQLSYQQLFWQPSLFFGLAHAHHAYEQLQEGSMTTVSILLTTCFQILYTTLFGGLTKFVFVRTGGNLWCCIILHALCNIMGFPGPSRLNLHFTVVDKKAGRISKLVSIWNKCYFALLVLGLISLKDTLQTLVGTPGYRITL
Yeast UUG start – modulators of yeast start codon fidelity, primary screen, whole organism, S. cerevisiae, single point, plate reader. S. cerevisiae UUG-firefly luciferase reporter, luminescence/redox ratio. activity score, % at 18.7 µM. actives 0.13% (n = 350,000). AID 602363, 2012;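 active = replicate mean at a twofold rise or more, about +100% in these data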;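 note: firefly luciferase made from a UUG start codon reports start codon fidelity; reporter light over untreated wells divided by growth signal over untreated wells; some hits fall short of that in this replicate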
MT1-MMP act inh RFP – also measured in MT1-MMP act inh; calls as there; RFP signal change, %; measured here: RFP expression control read;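 0 = vehicle wells; hits needed this value within 50% of zero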
* marks the source's active call; other numbers are inactive results; i = inactive; ? = inconclusive; nt = no result given; + = active, no number; & = joins results of further samples.

SMILES	HIV Env fusion	eIF4H FP inh	PABP polyA inh	MT1-MMP act inh	MT1-MMP act inh RFP	CSC inhib	Rce1 inhib	Yeast UUG start
CCOC(=O)C(C)(C)Sc1nc2c(cnn2-c2ccc(Cl)cc2)c(=O)[nH]1	-2	-1	-2	-5	-15	12	i	-15
CC(=O)COc1coc(CN2CCN(c3ccc(F)cc3)CC2)cc1=O	33	-2	15	1	0	-17	i	-21
Cc1nn(C)c(C)c1NC(=O)Nc1ccc(Cl)c(Cl)c1	-5	-3	-3	-1	-2	17	i	-19
COC(=O)c1c(NC(C)=O)sc(C)c1C	-5	-10	-4	-1	-1	-11	i	nt
COc1ccc(NC(=O)c2cccc(NC3=NC4CS(=O)(=O)CC4S3)c2)cc1Cl (stereo unspecified)	2	0	-2	1	2	-5	i	0
CCOC(=O)C(CC)Sc1nc2c(cnn2-c2ccc(F)cc2)c(=O)[nH]1 (stereo unspecified)	14	9	0	5	3	-9	i	-7
CCC(=O)NC(=S)N1CCN(c2ccc([N+](=O)[O-])cc2Cl)CC1	-21	2	0	2	-5	-7	i	-25
Cc1cc(C#N)c2ccccc2n1	nt	-6	8	-4	-3	-5	i	-6
COc1ccc2[nH]cc(C(=O)CN3CCC(C)CC3)c2c1	-8	-7	-1	nt	nt	-12	i	-5
CCOc1cc(N2CCOCC2)c(OCC)cc1NC(=O)CN1C(=O)C2CC=CCC2C1=O (stereo unspecified)	7	12	12	1	2	6	i	nt
CC(C)OC(=O)c1ccc(N)cc1	8	-5	-1	-1	1	9	i	nt
Cc1cccc(NC(=S)NNC(=O)CCn2cc(C)cn2)c1	nt	-7	3	1	0	7	i	-26
CCOC(=O)c1c(C)oc2cc(Br)c(O)c(Br)c12	2	30	-2	4	4	-11	i	-9
Cc1n[nH]c(C)c1CCC(=O)N/N=C/c1cccs1	-4	-9	-8	6	3	-7	i	-11
C/C(CC(=O)Nc1ccccn1)=N\NC(=O)c1ccc(C)cc1	-24	11	-10	-1	4	-23	i	nt
CC(=O)c1cccc(NC(=O)C2Cc3c(-c4ccccc4Oc4ccccc4)ccnc3O2)c1 (stereo unspecified)	27	nt	nt	5	-24	nt	nt	-22
Cc1oc(-c2cccc(Cl)c2)[n+]([O-])c1C	-22	12	-1	0	5	-6	i	-14
Cc1ccc(CCNC(=O)C2CCC(=O)N2C(C)C)cc1 (stereo unspecified)	nt	3	-7	0	1	-20	i	-25
CN1CCC(OC(=O)c2cccc(Cl)c2)CC1	-2	9	5	-4	-3	117*	i	-15
Cc1ccc(C)c(OCc2cc(C(=O)N3CC[C@H](O)C3)no2)c1	-47	4	-4	2	0	-5	i	-10
COc1ccccc1CN1CC(C(=O)NCc2cc(F)cc(C(F)(F)F)c2)CCC1=O (stereo unspecified)	5	nt	nt	2	0	-4	i	-2
COc1cc(CCC(=O)OCC(=O)NCC2CCCCC2)cc(OC)c1OC	4	1	1	-3	0	-11	i	nt
O=C(CN1C(=O)c2ccccc2C1=O)Nc1cccnc1	nt	-2	-6	3	7	nt	i	-6
COc1ccc(S(=O)(=O)N2CCOC2CNC(=O)C(=O)NCCN2CCOCC2)cc1 (stereo unspecified)	-3	-5	-1	0	1	6	i	-13
Cc1cccn2c(CNC3CCCc4ccccc43)c(C(=O)N3CCOCC3)nc12 (stereo unspecified)	-9	7	1	3	4	nt	i	-12
Further structures.
SMILES	HIV Env fusion	eIF4H FP inh	PABP polyA inh	MT1-MMP act inh	MT1-MMP act inh RFP	CSC inhib	Rce1 inhib	Yeast UUG start
COc1ccc(NC(=O)c2cc3n(n2)C(C(F)(F)F)CC(c2ccc(OC)cc2)N3)cc1 (stereo unspecified)	21	-16	-6	8	2	4	i	-18
COc1ccc(C(=O)COC(=O)CCC(=O)Nc2ccc(C(C)=O)cc2)cc1	-5	5	0	-1	1	7	i	-18
CC(C)c1ccc(S(=O)(=O)N2CCC(C(=O)N3CCC3)CC2)cc1	nt	nt	nt	3	-7	1	i	-12
CCOC(=O)c1[nH]c(C)c(/C(C)=N\O)c1C	-7	nt	nt	7	6	nt	nt	-3
NC(=O)CSc1nnc(NC(=O)c2ccc(S(=O)(=O)N3CCOCC3)cc2)s1	-42	-8	17	0	5	-30	i	-8
Cc1onc(-c2ccccc2Cl)c1C(=O)N1CC(C)CC(C)C1 (stereo unspecified)	6	11	0	0	-6	23	i	-10
Cc1noc(C)c1NC(=O)Nc1cccc2c1O[C@H](CN(C)C(=O)NC1CCCCC1)[C@@H](C)CN([C@H](C)CO)C2=O	0	nt	nt	0	0	nt	nt	-7&-7
Cc1nn(C(=O)c2cccc([N+](=O)[O-])c2)c(C)c1Br	3	-6	-1	-1	-1	-17	i	0
Cc1ccc(OCCCC(=O)Nc2ccc(N3CCOCC3)cc2)c(C)c1	nt	1	-7	6	-5	nt	i	-7
CCOc1ccc(CN(C)Cc2cc(=O)oc3cc(C)c(Cl)cc23)cc1	25	-3	5	2	-4	-11	i	-14
CCSc1nc2c(c(=O)[nH]1)C(c1cccnc1)C(C(=O)OC(C)C)=C(C)N2 (stereo unspecified)	-53	-5	-3	1	-7	1	i	-5
CCn1c(C(C)NC(=O)c2ccc(OC)c(OC)c2)nc2ccccc21 (stereo unspecified)	2	1	0	7	9	11	i	-6
Cc1cccc(C)c1Nc1c(-c2ccc(N3CCOCC3)cc2)nc2ncccn12	-15	7	4	-8	3	1	i	-18
CN(CCc1cnn(C)c1)Cc1cn[nH]c1-c1ccc(-c2ccccc2)cc1	nt	0	-9	2	6	-8	i	-12
Cc1cc2cc(CCNC(=O)CC(C)C)c(=O)[nH]c2cc1C	nt	-9	1	nt	nt	nt	i	nt
Cc1coc2c1c(C)cc1oc(=O)c(CC(=O)NCCCCCC(=O)O)c(C)c12	5	-15	14	2	1	-6	i	-10
CCOC(=O)c1cnn(-c2nc(C)cc(C)n2)c1N	7	-2	6	3	3	-5	i	-14
Cc1ccc(N(CC(=O)NCc2cccnc2)S(C)(=O)=O)cc1C	-65	1	15	10	10	-6	i	7
COc1cccc(OC2(C)CCN(Cc3cccn3-c3nccs3)C2)c1 (stereo unspecified)	3	nt	nt	1	4	nt	nt	-38
O=C1C=C(c2ccc(Cl)cc2)OC2(CCCC2)O1	-152	-4	8	-5	1	-9	i	-9
CN(C)CCCN1C(=O)c2cccc3cccc(c23)C1=O	-14	9	0	-1	3	-1	+	-21
Cc1cccc(NC(=O)c2cc(Cl)nc3ccccc23)n1	-5	9	-11	-1	0	-10	i	nt
COC(=O)CCn1nnc(-c2cccs2)n1	-89	12	2	-3	3	-20	i	-4
CCCCC1(C)NC(=O)N(CC(=O)Nc2ccc(S(=O)(=O)N3CCOCC3)cc2)C1=O (stereo unspecified)	-92	-5	-13	4	0	-12	i	-4
O=C(Nc1ccccc1)c1cccc(S(=O)(=O)NCc2ccco2)c1	4	-3	-1	0	-4	6	i	-18
Following part.
SMILES	HIV Env fusion	eIF4H FP inh	PABP polyA inh	MT1-MMP act inh	MT1-MMP act inh RFP	CSC inhib	Rce1 inhib	Yeast UUG start
COc1ccc(C)cc1Nc1n[n+](-c2ccccc2)c(-c2ccc(OC)c(OC)c2OC)s1	4	0	-2	2	-10	6	i	-8
Nn1c(SCC(=O)N2CCN(S(=O)(=O)c3ccccc3)CC2)nnc1-c1cccs1	nt	-7	6	-3	3	-9	i	-12
Cn1c(COc2ccccc2Br)nc2ccccc21	-73	10	8	0	-3	-1	i	-21
COc1ccc(C2SCC(=O)N2c2c(C)n(C)n(-c3ccccc3)c2=O)cc1 (stereo unspecified)	nt	-2	8	0	10	0	i	-8
O=C(Nc1cccc2ncccc12)c1ccc([N+](=O)[O-])o1	-99	-5	-5	-2	-6	nt	i	-21
COc1cc(/C=C/C(=O)O)cc(S(=O)(=O)Nc2cc(Cl)c(Cl)cc2Cl)c1OC	-3	-6	19	-8	-8	9	i	-26
Cc1nn(Cc2cccc(F)c2)c(C)c1NC(=O)c1c(Cl)cnn1C	-11	-6	10	2	3	-12	i	nt
CCCCN1CNC(=S)N(c2cc(C)ccc2C)C1	-10	1	12	3	8	nt	i	-22
CCc1ccccc1Nc1nc(N)nc(COC(=O)c2cccn2C)n1	-33	6	-6	2	-3	47	i	-3
COc1ccc(C(CNC(=O)COc2ccc(Cl)cc2C)N2CCCCC2)cc1 (stereo unspecified)	2	-5	-4	3	0	-1	i	-5
CN(Cc1ccccc1)C(=O)COc1ccc2ccccc2c1	-16	nt	nt	-1	-5	6	i	-19
CCOC(=O)c1cc(-c2ccc(OC)cc2)n(CCC(=O)NCCN2CCC(C)CC2)c1C	?	-9	9	0	4	26	i	nt
COCc1ccc(CN2CCCC(CO)(Cc3cccc(OC)c3)C2)o1 (stereo unspecified)	-8	5	0	3	5	-4	i	-28
O=C(c1cnn2c(C(F)F)cc(-c3ccccc3)nc12)N1CCCc2ccccc21	nt	-2	23	-11	-13	11	nt	42
CCOC(=O)C1(Cc2cccc(Cl)c2)CCCN(C(=O)c2ccc(C)nc2)C1 (stereo unspecified)	35	-5	-5	-1	0	-13	i	nt
Cc1cccc(C(=O)NNC(=O)CCC(=O)Nc2cccc(Cl)c2C)c1	-4	2	7	2	4	-10	i	-15
C#CCOCCOCCOCCNc1nc(N2CCN(C(=O)[C@H](CCC(=O)O)n3cc(C(N)[C@H](C)CC)nn3)CC2)nc(N2CCN(C(=O)[C@H](Cc3ccc(O)cc3)n3cc(C(N)[C@H](C)CC)nn3)CC2)n1 (stereo partly specified)	nt	5	6	-1	5	-1	i	-17
Clc1ccc(NCn2cncn2)nc1	nt	-8	-10	-5	2	-4	i	-2
O=C(O)C(Cc1c[nH]c2ccccc12)NS(=O)(=O)c1ccc(Cl)c(C(F)(F)F)c1 (stereo unspecified)	6	-3	0	-2	4	3	i	-24
CCCC(=O)Nc1ccc(C(=O)NNC(=O)c2ccco2)cc1	-39	2	-4	2	0	-2	i	nt
CC1CCCC(NC(=O)C2CCC(CNc3c(N4CCCC4)c(=O)c3=O)CC2)C1C (stereo unspecified)	-4	-1	-7	2	1	0	i	1
Cc1cc(OCC(O)CN2CCc3ccccc3C2)cc(C(C)C)c1 (stereo unspecified)	4	4	-4	1	0	22	i	-22
Cn1c(=N)n(CC(=O)C(C)(C)C)c2ccccc21	nt	-3	4	3	3	-7	i	2
COC(=O)c1cnn(-c2ccc(Cl)cc2)c1/C=N/NC(N)=S	16	3	9	-2	-27	2	i	4
COC(=O)C1=C(NC(=O)c2ccccc2C)CCS1	3	-10	-4	1	0	-13	i	nt
O=C(Nc1ccc2c(c1)OCCO2)N1CCN(c2ccccc2)CC1	18	0	-1	4	1	-7	i	6
Cc1cnc(C(=O)NC(C)CCc2ccccc2)cn1 (stereo unspecified)	-5	-2	0	0	1	-4	i	nt

Rce1 inhib, entries above that show a hit.
molecule	HIV Env fusion	MT1-MMP act inh	MT1-MMP act inh RFP	Rce1 inhib	Yeast UUG start
CN(C)CCCN1C(=O)c2cccc3cccc(c23)C1=O	-14	-1	3	+	-21

Assay outcomes as filed in PubChem.
